Source: PubChem BioAssay
LANA-H2A inh: blockers of LANA interaction with H2A/H2B – biochemical, FP readout, HTS, primary screen; cell-free LANA-H2A/H2B peptide, fluorescence polarization; inhibition, % (concentration not given with the values); hit rate 0.6% among 320,000; AID 2629, 2010; in the data active = inhibition mostly above about 10%, no sharp cut-off; inactive = mostly below about 6.7%;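 note: stock transfer was 7.5 nL into about 10 µL; 0% = median of vehicle wells and 100% = median of positive control wells; one replicate is shown; the record names a cut of 25% in any replicate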
E coli growth: E. coli growth inhibition, primary screen, OD600. Escherichia coli growth, 23 h; hits give low values. hit rate 0.21% among 330,000. OD600 absorbance (concentration not given with the values). AID 1053175, 2014;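 active = OD600 absorbance below the run mean of sample wells minus 3.6 SD, in any replicate, cut at about 0.56 in these data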;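 note: stock transfer was 300 nL into about 60 µL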
Vif TR-FRET: inhibitors of Vif binding to APOBEC3G peptide, primary screen, biochemical, TR-FRET, GST-Vif 1-94, biotin-A3G peptide, dose response retest (AID 1117319) | TR-FRET GST-Vif / biotin-A3G peptide binding; higher % means a stronger effect; test concentration not given here; strong numbers were not always called active | one-dose inhibition, %; IC50 in µM for titrated hits | hit rate 0.57% among 260,000;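 active = above the screen mean plus three standard deviations and confirmed in dose response; inconclusive = results disagree or hit not tested in dose response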;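 note: Vif residues 1-94 fused to GST binding biotinylated APOBEC3G peptide 110-148; 0% = full assay without inhibitor and 100% = GST in place of GST-Vif; retest series ran down from 100 µM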
HNF4A DNA FP: change in binding of human HNF4A to DNA, primary screen, biochemical, fluorescence polarization, FITC-DNA; Hepatocyte nuclear factor 4-alpha (Homo sapiens), P41235; 1 h; activity change, % at 10 µM; hit rate 0.3% among 360,000; AID 1224865, 2016; in the data active = activity change above about 30%, passing the limit was not always enough;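 note: controls were the assay level and a saturating level of protein; the project sought stronger binding though the title names inhibitors; some compounds called inactive have numbers as strong as hits; positive values seem to mean higher polarization but the record does not say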
Target sequence (P41235 whole entry, looked up): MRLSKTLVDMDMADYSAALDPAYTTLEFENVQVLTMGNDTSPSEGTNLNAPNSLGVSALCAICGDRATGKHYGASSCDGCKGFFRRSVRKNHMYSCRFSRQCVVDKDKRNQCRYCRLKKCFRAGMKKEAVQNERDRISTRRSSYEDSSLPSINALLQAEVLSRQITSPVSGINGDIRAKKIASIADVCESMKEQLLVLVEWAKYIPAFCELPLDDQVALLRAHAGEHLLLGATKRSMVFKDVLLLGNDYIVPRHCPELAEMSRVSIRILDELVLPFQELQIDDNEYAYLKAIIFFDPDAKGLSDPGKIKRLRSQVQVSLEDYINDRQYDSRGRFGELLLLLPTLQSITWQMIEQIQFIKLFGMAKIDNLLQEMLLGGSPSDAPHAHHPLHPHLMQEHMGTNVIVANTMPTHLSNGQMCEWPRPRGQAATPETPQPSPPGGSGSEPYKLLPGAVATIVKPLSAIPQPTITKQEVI
Beta2AR agonist: beta2AR agonists driving receptor internalization, primary screen, cell-based, FAP fluorogen, flow cytometry | response, % (concentration not given with the values) | Am2.2-beta2AR cells; reference of the scale not given here | hit rate 0.43% among 340,000 | Beta-2 adrenergic receptor (Homo sapiens), P07550;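 active = response above a set limit, near 3 SD of response in nonfluorescent compounds, cut at about 42% in these data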;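 note: stock transfer was 100 nL into about 11 µL; a reference agonist was the positive control; negative values mostly stem from fluorescent compounds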
Target sequence (P07550 whole entry, looked up): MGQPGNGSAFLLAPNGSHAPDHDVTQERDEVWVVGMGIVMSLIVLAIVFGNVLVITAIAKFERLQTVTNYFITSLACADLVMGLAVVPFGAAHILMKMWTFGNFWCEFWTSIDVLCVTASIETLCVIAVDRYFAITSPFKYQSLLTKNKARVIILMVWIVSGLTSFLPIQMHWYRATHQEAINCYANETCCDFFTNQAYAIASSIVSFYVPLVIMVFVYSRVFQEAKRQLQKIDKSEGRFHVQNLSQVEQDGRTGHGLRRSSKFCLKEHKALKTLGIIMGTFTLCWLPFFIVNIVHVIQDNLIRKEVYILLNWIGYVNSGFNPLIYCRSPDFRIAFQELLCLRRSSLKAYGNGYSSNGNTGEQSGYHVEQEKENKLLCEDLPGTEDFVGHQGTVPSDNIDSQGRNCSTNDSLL
UCH37 inh: inhibitors of human UCH37 deubiquitinase, primary screen, biochemical, Ub-AMC cleavage, fluorescence. inhibition, % (no concentration beside the values). hit rate 0.33% among 330,000. purified proteasome/UCH37. Ubiquitin carboxyl-terminal hydrolase isozyme L5 (Homo sapiens), Q9Y5K5;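 active = mean of two replicates above 20%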;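 note: 0% = compound-free wells with enzyme and 100% = wells lacking proteasome; stock transfer was 100 nL into about 20 µL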
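Signal – fluorescence, ex 355 nm, em 460 nm · System – Proteasome-bound UCH37 · Input – 0.15 nM proteasome as dispensed · Timing – 30 min preincubation with enzyme, 25 min cleavage at room temperature · Read-out basis – percent inhibition of cleavage signal versus uninhibited and no-proteasome wells · Medium – Tris-HCl pH 7.4 with ATP-MgCl2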
Bfl-1 A1 inh: caspase 3/7 activation in MEF A1-2A-BIM cells, primary screen, A1 inhibitor project, cell-based, luminescence, HTS; Caspase-Glo 3/7 luminescence, 3 h; percent of clofoctol response, vehicle zero; caspase activation, % (no concentration beside the values); hit rate 0.066% among 330,000; AID 2462, 2010;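 active = over half of replicate activation scores above 10%, or exactly half above 10 with the replicate mean above 10; inconclusive = replicate mean below 10 yet half the replicates above 10; inactive = over half of replicates below 10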;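 note: wells of about 30 µL received 50 nL stock; many hits fall short of the cut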
An asterisk follows results filed as active; i = inactive; u = inconclusive; x = not tested or not shown.

Each structure is followed by: LANA-H2A inh, E coli growth, Vif TR-FRET, HNF4A DNA FP, Beta2AR agonist, UCH37 inh, Bfl-1 A1 inh
> COC(CN1C(=O)C(O)=C(C(C)=O)C1c1ccccn1)OC (stereo not given)
→ -4.1, 0.708, 8.9%, -1.4, -9.7, 3.7, 0.7
> COc1ccc(NC(=O)CN(c2ccccc2F)S(=O)(=O)c2ccc(C)cc2)c(OC)c1
→ 3.7, 0.625, x, 0.8, 2.5, 3.0, 0.3
> CCC(O)(CC)C(=O)N=Nc1c(O)[nH]c2ccccc12
→ 1.8, 0.711, 3.3%, 5.1, -11.7, 2.7, 1.6
> O=C(c1ccc(-n2cncn2)c([N+](=O)[O-])c1)N1CCN(S(=O)(=O)c2cccc(F)c2)CC1
→ -1.1, x, x, -6.5, 14.6, x, 0.2
> CN(C)/C=N/c1sc2c(c1C#N)CCC2
→ -4.6, x, -5.1%, 4.2, -9.1, x, -0.7
> c1ccc2c(NCC3CCCO3)nc(N3CCOCC3)nc2c1 (stereo not given)
→ -1.0, 0.714, -3.4%, 0.0, -18.6, -144.4, 0.5
> O=C(Nc1ccnc(-c2ccncc2)n1)c1ccc(Cl)cc1
→ 5.7, 0.694, -4.7%, 4.0, -4.0, 3.3, -0.1
> CCOc1ccccc1NC(=O)c1cc(-c2cc(OC)c(OC)c(OC)c2)nc2ccccc12
→ 3.6, 0.729, 1.0%, -0.2, 9.8, -15.3, -0.5
> CCOC(=O)Cc1csc(NC(=O)CSc2nnnn2-c2ccc(F)cc2)n1
→ 2.2, 0.659, 0.4%, 1.6, -7.0, 3.9, 1.5
> O=S(=O)(c1ccc2ccccc2c1)N1CCN(S(=O)(=O)N2CCCCC2)CC1
→ 0.6, 0.743, -2.3%, -0.7, 6.5, 3.9, -0.4
> O=C(N/N=C/C=C/c1ccccc1[N+](=O)[O-])c1cccnc1
→ -2.9, x, x, 0.1, -4.2, x, 0.7
> COC(=O)C(NC(=O)CCC(=O)N[C@@H](C(=O)OC)c1ccccc1)c1ccccc1 (stereo not given in full)
→ 0.6, x, x, 6.5, -8.1, 0.5, 1.1
> COC(C#CCCN(C)C)(c1ccccc1)c1ccccc1
→ 1.2, 0.665, -1.3%, -1.8, 9.4, 1.1, 0.0
> O=C(Nc1cccc(-c2cn3ccccc3n2)c1)c1cnccn1
→ 12.5, 0.75, 8.5%, 0.4, -3.4, 4.2, 0.8
> O=S(=O)(Nc1ccc(OC(F)F)cc1)c1ccc(-c2ccon2)s1
→ 6.7, 0.665, x, 2.1, -0.9, 3.4, -0.3

(listing goes on)
Each structure is followed by: LANA-H2A inh, E coli growth, Vif TR-FRET, HNF4A DNA FP, Beta2AR agonist, UCH37 inh, Bfl-1 A1 inh
> CSCC[C@H](NC(=O)c1nn(C)c(=O)c2ccccc12)c1nc2ccccc2[nH]1
→ 4.3, 0.704, -6.3%, -2.5, -14.8, 7.5, -1.1
> COc1ccc2c(c1)[nH]c(=O)c1sc3ccccc3c12
→ -2.0, 0.78, -16.1%, 2.0, -3.2, -45.5, -0.3
> O=C(OCCCOC(=O)c1ccc(Br)o1)c1ccc(Br)o1
→ 7.2, 0.696, 2.0%, -0.1, -5.5, 7.4, -0.2
> Cc1cc(C(C)(C)C)ccc1OCCN1CCCC1
→ -2.9, 0.702, 22.8%, -0.8, 5.1, 3.3, 1.0
> Cc1ccc(/C=C/S(=O)(=O)NCC(=O)O)cc1
→ 5.5, 0.665, x, 2.5, 1.7, 0.0, -1.3
> O=C(C(=O)N1CCc2ccccc2C1)c1c[nH]c2ccccc12
→ -2.8, 0.68, 1.1%, -1.9, -4.2, 2.8, -0.4
> C=CCn1c(C)cc(C(=O)CN2NS(=O)(=O)c3ccccc3C2=O)c1C
→ -0.5, 0.655, 0.7%, 3.4, 0.8, 2.5, -0.6
> O=C(Nc1cccnc1)OC1CCCCC1
→ 2.6, 0.709, u, -5.0, -4.1, 3.3, -0.6
> Clc1nnc2c3ccccc3ccn12
→ x, x, 0.9%, -1.1, -6.5, x, x
> COc1cccc(NC(=S)N(CCN(C)C)Cc2cccs2)c1
→ 3.1, 0.714, -0.2%, 3.1, -1.9, 0.8, 0.0
> O=C(c1cc2sccc2n1Cc1ccccc1)N1CCCc2ccccc21
→ -1.6, 0.757, -5.1%, -5.0, 4.6, 1.6, 0.4
> CCN1CCCC1CN(Cc1cc2ccc(C)cc2[nH]c1=O)C(=S)Nc1ccc(OC)cc1OC (stereo not given)
→ 8.4, 0.701, 27.9%, 0.3, 1.9, -0.2, 0.5
> C[C@@H](C(=O)Nc1ccc2ccccc2c1)[C@H]1C[C@]1(C)[C@H](NS(=O)(=O)c1ccccc1)c1ccccc1
→ -0.1, x, 3.1%, x, x, 2.5, -0.5
> CCOC(=O)C1=C(CSc2nc3c(cc2C#N)CN(C)CC3)OC(N)=C(C#N)C1c1ccc(Cl)cc1 (stereo not given)
→ 8.7, 0.703, u, 9.1, 5.6, -18.2, -0.2
> CC1(c2ccccc2)NC(=O)N(CC(=O)N2CCN(S(=O)(=O)c3cccc([N+](=O)[O-])c3)CC2)C1=O (stereo not given)
→ 0.6, 0.668, -9.8%, -4.9, -4.9, 0.9, 0.4

Carrying on.
Each structure is followed by: LANA-H2A inh, E coli growth, Vif TR-FRET, HNF4A DNA FP, Beta2AR agonist, UCH37 inh, Bfl-1 A1 inh
> O=C(NCCc1ccc(Cl)cc1)c1cc(-c2ccccn2)nc2ccccc12
→ 3.9, 0.728, x, -3.9, 3.8, -2.7, 1.0
> COc1cccc(NC(=O)c2ncc(Cl)c(Cl)c2Cl)c1
→ -0.7, 0.7, -12.0%, -2.2, 0.9, 0.7, -8.0
> COC(=O)Nc1ncc(CN2CCCCC2)s1
→ 7.3, 0.66, -0.7%, -1.4, -2.6, 0.8, 0.0
> O=C(COC(=O)C1CCCCC1)Nc1ccc(N2CCCCC2)cc1
→ -9.1, 0.669, 15.2%, -3.6, 3.7, 1.3, 1.0
> CCN(CC)S(=O)(=O)c1ccc(/C=C/C(=O)OCC(=O)N(C)C)cc1
→ 2.2, 0.665, x, -0.1, 2.3, 2.2, 0.2
> Cc1ccc(C(=O)NCCn2c(N)c(C#N)c3nc4ccccc4nc32)cc1
→ -1.1, 0.722, -9.9%, 7.7, -23.6, i, -0.5
> Cc1ccc(C(=O)CC(=O)c2ccccc2C)c(O)c1
→ -2.0, 0.607, 2.9%, 3.2, 3.6, 1.9, 0.9
> COC(=O)c1ccc(C(=O)NN)cc1
→ -0.2, 0.674, -8.3%, 1.5, 8.6, 4.6, -0.6
> N#Cc1ccc(CN2CCN(CC(=O)Nc3ccccc3C(=O)NC3CC3)CC2)cc1
→ 3.7, 0.682, -6.7%, -0.4, 7.3, -0.8, 0.4
> CC(=O)Nc1ccc2nc(NC(=O)COc3ccccc3Cl)sc2c1
→ -0.4, 0.713, -2.0%, 5.0, -3.5, -1.8, -0.3
> C=CCNC(=O)C1CCC(C(=O)NCC=C)CC1 (stereo not given)
→ -1.4, 0.699, -4.2%, 4.5, 5.7, 0.9, 0.3
> CCN1/C(=C2/SC(=S)NC2=O)Sc2ccccc21
→ 3.3, x, x, 2.9, 7.5, 4.3, -0.5
> Clc1ccc(Cn2ccc(C3CC3)n2)cc1
→ 2.2, 0.692, x, -5.7, -2.2, 5.6, 0.9
> CN1CCN(CCC(=O)Nc2ccccc2)CC1
→ -5.1, 0.624, -2.4%, 4.3, -1.9, 0.2, 1.0
> COc1cccc(N2C(=O)CC(N3CCN(S(=O)(=O)c4ccccc4)CC3)C2=O)c1 (stereo not given)
→ 1.0, 0.748, -1.5%, 2.1, -4.4, -5.8, -0.8

New compounds follow
Each structure is followed by: LANA-H2A inh, E coli growth, Vif TR-FRET, HNF4A DNA FP, Beta2AR agonist, UCH37 inh, Bfl-1 A1 inh
> COc1ccc(C(=O)N2CCCC(C(N)=O)C2)cc1S(=O)(=O)N1CCOCC1 (stereo not given)
→ x, 0.714, x, 1.4, 0.8, 2.1, x
> COc1ccc(CCNC(=O)CSc2nnc(Cn3c(=O)sc4ccccc43)n2C)cc1OC
→ 6.0, 0.651, 21.5%, 1.6, -8.1, 0.4, -0.3
> Cc1ccccc1NC(=O)Cc1nc(COC(=O)c2cccnc2Cl)cs1
→ 0.5, 0.712, x, -4.5, -5.5, -0.8, 0.1
> O=C(Nc1ccc(S(=O)(=O)Nc2cnc3ccccc3n2)cc1)c1ccc(Br)o1
→ 0.0, 0.701, u, -0.8, -4.8, -10.6, 0.5
> Cc1cc(C)cc(OCC(=O)NNC(=S)NC(=O)C2CC2)c1
→ 0.4, 0.689, -0.7%, 3.1, -0.7, 2.4, 0.5
> Cc1ccc(C(C)NC(=O)c2ccncc2)cc1C (stereo not given)
→ -2.5, 0.705, x, 2.7, -0.5, 1.1, -0.1
> C[C@H](NC(=O)N1CCn2c1nc1ccccc12)C(=O)NCc1ccc(F)cc1
→ 5.1, 0.719, -11.9%, 2.4, -8.2, 1.3, -0.1
> CCCCN1CCc2c([nH]c3ccc(C)cc23)C1=O
→ 0.3, 0.75, -8.9%, -2.0, 1.9, -1.9, -0.9
> Cc1cc2oc(=O)c(CC(=O)O)c(C)c2c2occ(C(C)(C)C)c12
→ 1.9, 0.672, 7.2%, 1.0, 3.3, -186.6, -0.8
> COCCCNC(=S)N(CCCN(C)C)Cc1cc2cc3c(cc2[nH]c1=O)OCCO3
→ 3.0, 0.724, x, 0.0, -11.8, -73.5, -0.5
> O=C(CN(Cc1ccccc1C(F)(F)F)C(=O)CNC(=O)c1ccco1)NC1CCCC1
→ -4.7, 0.757, -7.2%, -1.8, -10.3, 2.8, -0.4
> O=C(CNC(=O)C1CCCCC1)NC1=NCCS1
→ -0.4, 0.675, -7.4%, 7.8, 9.1, 2.4, 1.5
> O=C(Nc1ccc(C(=O)O)cc1)/C(=C\c1ccc2c(c1)OCO2)NC(=O)c1ccco1
→ 0.8, 0.627, 23.0%, 3.3, 11.8, 11.1, 0.9
> CCN(C(=O)C1CCN(S(=O)(=O)c2cccc3nonc23)CC1)c1ccccc1
→ 5.1, 0.67, -6.5%, 3.5, 0.6, 3.6, -0.3
> CNC(=O)C1CCN(C(=O)c2ccc(-c3ccccc3)cc2)CC1
→ 2.0, 0.729, 9.6%, -3.9, 4.2, -4.6, 0.9

Other records:
Each structure is followed by: LANA-H2A inh, E coli growth, Vif TR-FRET, HNF4A DNA FP, Beta2AR agonist, UCH37 inh, Bfl-1 A1 inh
> CC(C)CC(=O)NC(=S)Nc1ccc(CN2CCOCC2)cc1
→ -3.2, 0.674, 16.5%, 0.5, -5.2, 5.0, 0.5
> O=C(NC(Cc1c[nH]c2ccccc12)C(=O)O)/C(=C\c1ccc2c(c1)OCO2)NC(=O)c1ccccc1 (stereo not given)
→ 1.9, 0.677, 8.9%, 1.9, -5.9, 4.5, 0.6
> CN1CCCCCC1=NC1=C(C#N)CCCC1
→ -5.4, 0.681, 5.0%, 2.6, 0.5, -0.6, -0.7
> CCN(C#N)c1nc(N(C)C)nc(N(C)C)n1
→ 2.9, 0.704, 3.2%, 0.6, -4.3, 1.3, -0.1
